Screens (PubChem BioAssay)
NPYLR7 agonist – mosquito NPYLR7 agonism | HEK293T NPYLR7/Galpha15, GCaMP6s calcium fluorescence | activation, % at 10 µM | 270,000 compounds, 0.15% hits; in the data active means activation above about 40%;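 further: 0% = vehicle and 100% = reference agonist at the receptor; some compounds past the cut are filed as inactive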
NPYLR7 agonist max-min – also measured in NPYLR7 agonist; calls as there; activation, %; measured here: Max-Min RFU normalised activation; some inactives read as strong as hits;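 span of the calcium signal over five minutes; 0% = vehicle and 100% = native peptide agonist; compound fluorescence can raise it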
An asterisk follows results filed as active; & = joins results of further samples; ! = a repeat was not active. Some of the compounds tested; count on the stated rates, not on these rows.

smiles | NPYLR7 agonist | NPYLR7 agonist max-min
Nc1nc(COC(=O)c2ccc(O)cc2)nc2ccccc12 | 8 | 7
CN(Cc1ccc(C#N)cc1)C(=O)CN1C(=O)CCCc2ccccc21 | 0 | 9
O=C(NCc1nnc(SCC(=O)N2CCc3ccccc32)n1-c1cccc(C(F)(F)F)c1)c1ccco1 | -7 | -2
COCCCN(Cc1cccn1Cc1ccccc1F)CC(O)COCc1ccco1 (stereo not drawn) | -1 | 3
CC(c1cc2ccccc2[nH]1)N(C)C(=O)c1cnn2c1CCCC2 (stereo not drawn) | 6 | 4
CCC(C)n1c(C)cn2c3c(=O)n(Cc4ccc(C)cc4)c(=O)n(C)c3nc12 (stereo not drawn) | 10 | 8
C=CCn1cc(CN2C[C@H](OC(C)C)[C@@H](O)C2)c(C)n1 | 3 | -1
Cc1c(C(C)NCc2ccc(O)c(Cl)c2)cnn1-c1ccccc1 (stereo not drawn) | 6 | 0

In a second layout: 4 of the compounds above.
CN(Cc1ccc(C#N)cc1)C(=O)CN1C(=O)CCCc2ccccc21
- NPYLR7 agonist = 0
- NPYLR7 agonist max-min = 9

O=C(NCc1nnc(SCC(=O)N2CCc3ccccc32)n1-c1cccc(C(F)(F)F)c1)c1ccco1
- NPYLR7 agonist = -7
- NPYLR7 agonist max-min = -2

COCCCN(Cc1cccn1Cc1ccccc1F)CC(O)COCc1ccco1 (stereo not drawn)
- NPYLR7 agonist = -1
- NPYLR7 agonist max-min = 3

CC(c1cc2ccccc2[nH]1)N(C)C(=O)c1cnn2c1CCCC2 (stereo not drawn)
- NPYLR7 agonist = 6
- NPYLR7 agonist max-min = 4

The results go on.
smiles | NPYLR7 agonist | NPYLR7 agonist max-min
Cc1ccc(-n2cnnc2SC(C)C(=O)N2CC(C)OC(C)C2)c(C)c1 (stereo not drawn) | 4 | 3
Cc1cc(C)cc(-n2nnc(C(=O)OCc3ccccc3F)c2C)c1 | 1 | 2
Nc1ncc(-c2ccc(F)cc2)nc1N1CCN(CCO)CC1 | 0 | -5
Cc1cccc(Cc2nc3c(c(N4CCOCC4)n2)CN(C(=O)Nc2ccc(Br)cc2)CC3)c1 | 3 | 15
O=C(COc1ccc(Cl)cc1)OCCCC(=O)c1ccc(F)cc1 | -3 | -7
Cc1c(C(=O)NC(C)C)cc(-c2ccc(Cl)cc2)n1-c1ccc(F)cc1F | 13 | 5
C=C(C)Cn1c(C2CC(=O)N(c3cc(Cl)ccc3OC)C2)nc2ccccc21 (stereo not drawn) | 0 | 7
CC(C)(C)C1CCC(OCC(O)CN2CCCCCC2)CC1 (stereo not drawn) | 3 | 4

Compound profiles, from the list above. Screens in order: NPYLR7 agonist	NPYLR7 agonist max-min
Cc1cccc(Cc2nc3c(c(N4CCOCC4)n2)CN(C(=O)Nc2ccc(Br)cc2)CC3)c1 as listed: 3	15
Cc1cc(C)cc(-n2nnc(C(=O)OCc3ccccc3F)c2C)c1 as listed: 1	2

(more compounds)
smiles | NPYLR7 agonist | NPYLR7 agonist max-min
CC(C)CN1CCN(c2nc3c(c(=O)[nH]c(=O)n3C)n2Cc2ccccc2F)CC1 | 19 | 14
O=C(c1cc(C(F)(F)F)ccc1Cl)N1CCCC(CO)(Cc2ccccc2F)C1 (stereo not drawn) | 19 | 23
CC(=O)C(=Cc1ccc(-c2ccc(SC(F)F)cc2)o1)C(C)=O | -5 | -5
Clc1ccc2c(NCc3ccco3)nc(-c3ccco3)nc2c1 | -1 | 8
Cc1nnc(NC(=O)CSc2nc3[nH]ncc3c(=O)[nH]2)s1 | -2 | -4
O=C(CN(C1CC1)S(=O)(=O)c1ccc(F)cc1)N(CCc1c[nH]c2ccccc12)Cc1ccc(Cl)c(Cl)c1 | 14 | 22
Cc1cccc(Nc2ncccc2C(=O)NN(C)c2ccccc2)c1C | -2 | -4
Cc1nn(C2CCS(=O)(=O)C2)c(Cl)c1/C=C/C(=O)Nc1ccc2c(c1)CCC2 (stereo not drawn) | 7 | 9
Cc1ccnc(C(NC(=O)c2cnc3cccc(C)n3c2=O)C2CC2)c1 (stereo not drawn) | 3 | 2
C=CCSc1nnc(-c2ccc(OC)cc2)n1CC=C | 23 | 27
C=C(C)Cn1c(=O)c2c(nc3n(-c4cc(OC)ccc4OC)c(C)c(C)n23)n(C)c1=O | -6 | -6
COc1cc(/C=C\C(=O)OCc2cc(-c3ccc4c(c3)OCO4)on2)cc(OC)c1OC | 0 | -1
CC(C)(C)c1ccc(COn2c(=O)c[n+]([O-])c3ccccc32)cc1 | -1 | -3
CC(C)c1ccc(NC2CCCN(C(=O)c3ccc(N4CC(=O)NC4=O)cc3)C2)cc1 (stereo not drawn) | -1 | -6
COc1ccc(OCc2nc(C(=O)O)cs2)cc1 | 17 | 26
O=C(c1cccc(Cl)c1)N1CCCC(N2CCN(c3ccccc3F)CC2)C1 (stereo not drawn) | 2 | 9
N#CCCNC(=O)c1ccc(-c2ccc(F)c(F)c2)s1 | 0 | 13
CSc1sc(NS(=O)(=O)c2ccccc2C#N)nc1C | 3 | 2
CCOC(=O)c1cn[nH]c1S(=O)(=O)Nc1ccc2c(c1)OCCO2 | -1 | -6
N=c1ncn(Cc2ccccc2)c2nc(SCCOc3ccccc3F)[nH]c12 | -1 | -2
COCCNC(=O)C1(C)CCCN(Cc2cc(-c3ccccc3)n(C)n2)C1 (stereo not drawn) | 4 | 2
COc1cccc(C(CN2CCN(S(=O)(=O)C[C@@]34CC[C@@H](CC3=O)C4(C)C)CC2)OCc2cccc(Cl)c2)c1 (stereo partly drawn) | -5 | -1
c1ccn2c(C3CCCN(Cc4cc5n(n4)CCNC5)C3)nnc2c1 (stereo not drawn) | 2 | 2
CC(C)CN1CCC(C(=O)NC(C)c2cccc3ccccc23)CC1 (stereo not drawn) | 9 | -1
COCCN(CC(=O)Nc1nc(CC(=O)NC2CCN(Cc3ccccc3)CC2)cs1)C(=O)c1ccc(Cl)cc1Cl | -2 | 13
Cc1cnn(-c2ccc(OCCN3CCCC3)cc2)c1 | 0 | -2
O=C(Cc1ccc(-n2cnnn2)cc1)NCC1CC2CCC1C2 (stereo not drawn) | 2 | 5
CN(C)CCn1c2c(c(SCC(=O)N3CCc4ccccc43)nc1=O)CCCC2 | -2 | 0
CCc1nc(C)sc1CNC(=O)CN1CC(=O)NC1=O | 0 | -6
CCN1CCN(C(=O)CCN(CCCN2CCOCC2)c2nc(-c3ccc(OC)cc3)nc3ccccc23)CC1 | -3 | 0
COC(=O)C(C)(C)NC(=O)c1ccc(Br)s1 | 5 | 3
CCN(CC)C(=O)Oc1ccc2c(ccn2Cc2cccc(OC)c2)c1-c1cc(F)cc(F)c1 | 11 | 5
O=[N+]([O-])c1ccc2[nH]c(O)c(N=Nc3cccc4cccnc34)c2c1 | 4 | 1
COc1ccc(C2CC(=O)C3=C(C2)N=C(C)C(C(=O)OCc2ccccc2)C3c2cc(OC)c(OC)c(OC)c2)cc1 (stereo not drawn) | 1 | 5
Cc1cccnc1C(NC(=O)C1CCN(CCCN2C(=O)CC3CCCCC3C2=O)CC1)c1ccc(F)cc1 (stereo not drawn) | -8 | -2
Cc1cc(C)c2c(n1)nn1c(N3CCN(c4ccccn4)CC3)cc(C)nc21 | 1 | 23
CCC(=O)Nc1nc2ccc(OC)cc2s1 | -7 | -14
CNc1ncccc1C(=O)N(Cc1c(C)nn(C)c1C)C1CC1 | -9 | -6
C#CCOCC(O)CN(Cc1cccc(C(F)(F)F)c1)CC1CC(c2ccc(F)cc2)=NO1 (stereo not drawn) | -3 | -1
COCC(=O)Nc1cc(-c2cn3nc(OC)ccc3n2)ccc1OC | -13 | -18
O=C(Cn1c(-c2ccc(Cl)cc2)n[nH]c1=S)N1CCCCCC1 | -18 | -17
CC(SCc1nc2scc(-c3ccccc3)c2c(=O)[nH]1)C(=O)N1CCCC1Cc1ccccc1 (stereo not drawn) | -1 | 21
O=C(NC1CCCC1)c1occc1COc1ccccc1 | -4 | -3
Cc1cc(N(C)C)nc(-n2cc([N+](=O)[O-])cn2)n1 | 1 | 7
CC(C)Oc1cccc(C(=O)C2CCCN(C(=O)c3ccc4c(c3)OCO4)C2)c1 (stereo not drawn) | -11 | -10
CN(C)S(=O)(=O)NC(c1ccc2c(c1)CCC2)c1cccs1 (stereo not drawn) | 5 | -1
O=C(CN1CCN(Cc2ccc3c(c2)CCO3)CC1)Nc1ccc(Cl)cc1Cl | 3 | 2
CCCCCn1c(=O)c2c(nc3n2CCCN3c2ccccc2)n(C)c1=O | -6 | -10
Clc1cccc(CN2CCN(c3nc4nonc4nc3NC3CC3)CC2)c1 | 13&-1 | 8&-4
CCSc1nnc2c(n1)OC(C)Nc1ccccc1-2 (stereo not drawn) | 5 | 2
COc1cccc(NC(=O)N(CC(=O)N(Cc2ccc3c(c2)OCO3)Cc2ccc(C)o2)CC2CCCO2)c1 (stereo not drawn) | 0 | 8
CCCn1cc(C(=O)Nc2cccnc2)c2nn(-c3ccccc3)c(=O)c-2c1 | 5 | 3
O=C(c1c(F)cccc1Cl)N1CCC(c2nc(-c3c(Cl)cccc3Cl)no2)CC1 | 3 | -1
CC(NC(=O)NC1CCCCC1C(F)(F)F)c1ccc(S(C)(=O)=O)cc1 (stereo not drawn) | -3 | -6
CNc1cc(-c2ccc(OC)c(OC)c2)nc2ccnn12 | -3 | -3
CN(C)C(=O)c1ccc(NC(=O)CCC2CCCC2)cc1 | 16 | 14

Next part:
smiles | NPYLR7 agonist | NPYLR7 agonist max-min
CC(Cn1cncn1)NC(=O)c1ccc2nc(Cc3ccccc3F)oc2c1 (stereo not drawn) | 19 | 9
COc1cc(=O)n(-c2ccccc2C)nc1C(=O)Nc1ccccc1Cl | 8 | 8
CCOC(=O)C1(Cc2ccccc2C)CCCN(C(=O)C2=NN(C)C(=O)CC2)C1 (stereo not drawn) | -8 | -11
O=C(Oc1ccc([N+](=O)[O-])cc1)c1cn2cc(C(F)(F)F)cc(Cl)c2n1 | -8 | -10
Cc1ccc(C(C)CCN2CCC(N3CCC(C(=O)N4CCCC4)CC3)CC2)o1 (stereo not drawn) | 3 | 2
C=CCOCC(O)CN(Cc1ccco1)Cc1cccc(OC)c1OC (stereo not drawn) | 13 | 20
CCn1c(C)cc(O)c(C(c2ccc(OC)cc2)N2CCN(c3ccccc3F)CC2)c1=O (stereo not drawn) | 5 | 2
COc1cc(NC(=O)C2(C)CCCN2C)cc(OC)c1OC (stereo not drawn) | 5 | 1
COc1ccc(CCN(C)C(=O)c2cc(-c3ccc(F)cc3)n(-c3cccc(C)c3)c2C)cc1OC | -6 | 2
Cc1cccc(-n2c(SCc3nc(C(=O)NC(C)CCc4ccccc4)cs3)nnc2-c2cccs2)c1 (stereo not drawn) | 20 | 17
Cc1ccc2oc(CN(C(=O)c3cnn(C)c3Cl)C(C)C)nc2c1 | 0 | -8
N=C(N)c1ccc(OCCCCCOc2ccc(C(=N)N)cc2)cc1 | 66*! | 51*!
O=C(CSc1nnc(CNC(=O)c2cccs2)n1-c1cccc(C(F)(F)F)c1)Nc1nc2ccccc2s1 | -8 | -7
CCN1CCCC1CN(CC1CCN(CCOC)CC1)C(=O)c1cc(C)oc1C (stereo not drawn) | 7 | 4
CN1C(=O)NC(c2ccsc2)C2=C1CN(C1CCN(Cc3ccccc3)CC1)C2=O (stereo not drawn) | 25 | 18
Cc1c(N2CCCC2)ccc2c1NC(=O)CC2c1ccc2c(c1)nnn2C (stereo not drawn) | 1 | -2

Grouped by structure, those above containing a tert-butyl group (two)
smiles | NPYLR7 agonist | NPYLR7 agonist max-min
CC(C)(C)C1CCC(OCC(O)CN2CCCCCC2)CC1 (stereo not drawn) | 3 | 4
CC(C)(C)c1ccc(COn2c(=O)c[n+]([O-])c3ccccc32)cc1 | -1 | -3

Carrying on:
smiles | NPYLR7 agonist | NPYLR7 agonist max-min
Cc1nn(C)c(Cl)c1S(=O)(=O)N1CC[C@H](CO)[C@@H](O)C1 | 5 | 2
O=C1CN(S(=O)(=O)Cc2ccccc2)CC(O)CN1Cc1ccc2c(c1)OCO2 (stereo not drawn) | 3 | 13
O=C(c1cccnc1Oc1ccc(Cl)cc1)N1CC=C(c2ccc(Cl)cc2)CC1 | 15 | 11
Cc1sc2ncn(CCC(=O)NC3CCCCC3)c(=O)c2c1C | 3 | 2
Cn1c(=O)[nH]c(=O)c2c1n1c(-c3ccccc3Cl)nnc1n2C | 3 | 0
Cc1ccc(C2c3c(n[nH]c3C)OC(=N)C2C#N)o1 (stereo not drawn) | -2&1 | -2&0
Cc1ccc(N(C(=O)COc2ccc(Br)cc2)C2C=CS(=O)(=O)C2)cc1 (stereo not drawn) | 6 | 8
CN(c1nc(-c2ccc(Br)cc2)cs1)C1CCS(=O)(=O)C1 (stereo not drawn) | -1 | -4
CC1(C)CC2CC(C)(CN2C(=O)c2cc(-c3ccccc3F)nn2-c2ccccc2Cl)C1 (stereo not drawn) | 12 | 10
Cc1ccc(-c2ccc(=O)n(CCCC(=O)Nc3ccc(S(N)(=O)=O)cc3)n2)cc1 | -4 | -15
Cc1cc(NC(=O)c2ccco2)n(-c2ncnc3c2cnn3-c2ccc(C)c(C)c2)n1 | 4 | 3
Cn1cc(CNc2ccc(C(=O)N3CCC(Cn4cccn4)CC3)cn2)cn1 | -2 | -4
Cc1ccc(C)c(C2CC(c3ccccc3)=Nc3ncnn32)c1 (stereo not drawn) | -2 | 2
CCOc1ccc2cc(C(=O)NC(C)=O)c(=Nc3ccccc3)oc2c1 | 24 | 11
COCCC(=O)NC(c1ccc(F)cc1)c1ccc(SCc2ccccc2)cc1 (stereo not drawn) | 5 | -2
COC(=O)Cc1cc(OC)c(OC)cc1[N+](=O)[O-] | -2 | -4
